# Screens deposited in PubChem by National Center for Advancing Translational Sciences (NCATS).
# Menin MLL FP FL: menin-MLL binding inhibition, fluorescein peptide | Fluorescence polarization, fluorescein-MLL peptide displacement from menin | FP activity change, % at 61.4 µM | 290,000 tested, under 10 active; inconclusive = falling polarisation curve, or a change in total fluorescence; inactive = total fluorescence flat and polarisation flat or rising; no compound was filed as active; the % refers to the polarisation; negative = inhibition;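 further: % of control where 0% means no effect; inhibitors lower the polarisation; unlabelled MLL peptide was the positive control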
# TRPML1 agonist: agonists of human TRPML1 channel; Q9GZU1; TRPML1-expressing cells, Ca2+ dye fluorescence, FDSS; host cell line not named in the record; reference of the full effect not given here; activation, % (concentration not given with the values); 410,000 tested, 0.12% active; in the data active = activation above about 50%; inconclusive = about 30% to 50%; inactive = below about 30%; further: 0% is about no effect; the text of the record puts the active cut at 80%
# Target sequence (Q9GZU1 whole entry, looked up): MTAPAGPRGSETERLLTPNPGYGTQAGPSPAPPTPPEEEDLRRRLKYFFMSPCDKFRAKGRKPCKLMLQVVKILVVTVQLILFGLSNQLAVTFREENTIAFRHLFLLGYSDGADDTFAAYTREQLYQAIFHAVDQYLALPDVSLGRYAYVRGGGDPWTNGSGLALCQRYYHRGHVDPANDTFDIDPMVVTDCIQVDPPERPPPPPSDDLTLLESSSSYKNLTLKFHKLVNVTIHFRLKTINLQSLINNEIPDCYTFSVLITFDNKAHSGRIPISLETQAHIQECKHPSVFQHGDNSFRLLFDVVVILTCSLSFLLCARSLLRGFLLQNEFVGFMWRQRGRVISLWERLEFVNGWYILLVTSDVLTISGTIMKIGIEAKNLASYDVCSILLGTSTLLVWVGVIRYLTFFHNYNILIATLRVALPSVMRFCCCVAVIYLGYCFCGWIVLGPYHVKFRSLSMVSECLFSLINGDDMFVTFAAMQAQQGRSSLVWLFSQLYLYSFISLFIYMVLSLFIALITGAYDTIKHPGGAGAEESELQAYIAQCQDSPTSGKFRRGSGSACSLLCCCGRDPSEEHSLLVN
#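 Kinetic FDSS Ca2+ read in Tet-induced TRPML1-DL cells (ABD Ca8 dye plus quencher, 45-90 min RT loading): baseline, then compound, then 110 s agonist window; EC80 agonist 54-4 at 4uM final added afterwards for a 110 s antagonist window.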
# gsp ag: gsp mutant agonism | gsp mutant cells, cAMP HTRF, 30 min; control for the full effect not named in the record | Potency, µM (series often up to 76.9 µM), for the others: at the top dose activation (cAMP increase), usual class: activators | AID 624287 | 340,000 tested, 0.13% active; active = well fitted activation curve with a large enough effect; inconclusive = small, poorly fitted or top-dose-only effect, or another doubt; inactive = no such curve, though single readings can be large or run the other way; cell line not stated here;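 further: phosphodiesterase inhibitor Ro 20-1724 added with compounds to block cAMP breakdown; potency means the concentration at half of the fitted maximal effect; nearly all actives have a fitted effect of over 60% in size; about a fifth of the inactives were tested at one dose only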
#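 Cells in DMEM/10% FBS with G418 were pretreated with compounds in DMSO plus […] (300 uM stock) for 30 min at 37C. cAMP was measured by HTRF (cAMP-d2 plus anti-cAMP antibody-K) after 30 min at room temperature.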
# gsp antagonist: gsp mutant antagonism; gsp-mutant cells, cAMP HTRF, 30 min; control for the full effect not named in the record; Potency, µM (doses to about 76.9 µM), inactives show at the top dose activity change, negative = inhibition, actives largely listed as inhibitors; 340,000 tested, 0.4% active; AID 624288; active = falling curve of any shape with a large fitted effect; inconclusive = falling curve, mostly with a smaller effect; inactive = flat or rising curve; cell line not stated here;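 further: intracellular cAMP measured with PDE inhibitor Ro 20-1724 present during compound exposure; potency means the concentration at half of the fitted maximal effect; on the % scale 0 is the no-effect control and ±100 the full control effect; nearly all actives have a fitted effect of over 65% in size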
#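 Measurement of cellular cAMP by homogeneous time-resolved fluorescence following a 30 min compound exposure at 37C. The PDE inhibitor […] was present throughout; the assay buffer was DPBS with 0.05% BSA and 0.005% Tween 20.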
# TRPML1 blocker: human mucolipin-1 channel inhibition | Q9GZU1 | TRPML1-inducible cells, Ca2+ dye fluorescence, FDSS; stronger effect = lower value; inhibition of EC80 agonist-evoked calcium signal | activity change, negative = inhibition, % (no concentration beside the values) | 390,000 tested, 0.02% active | AID 624415; in the data active means activity change below about -50%; inconclusive means about -30% to -50%; inactive means above about -30%;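 further: stimulus is agonist 54-4 at its EC80 concentration; on the % scale 0 is the no-effect control and ±100 the full control effect; compound concentration not given in the record; the text of the record puts the active cut at -80%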
#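 Tet-induced TRPML1-DL cells loaded with Ca8 no-wash calcium dye were read kinetically on FDSS. Compound addition was followed by EC80 agonist 54-4 (4 uM final); inhibition was read over 110 s.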
# ClpP mod: qHTS Assay for Activators of ClpP. ATP-dependent Clp protease proteolytic subunit (Bacillus subtilis (strain 168)), P80244. purified B. subtilis ClpP, FRET peptide cleavage, 20 min. Potency, µM (highest dose often 57.5 µM), for inactives: top-dose activity change, negative = active. 340,000 tested, 1.9% active. AID 651965, 2013; active = well fitted falling curve with a large enough effect; inconclusive = small, poorly fitted or top-dose-only effect; inactive = no such curve, though single readings can be large or run the other way; further: potency means the concentration at half of the fitted maximal effect; the source files actives as falling curves though it sought activators and does not explain the sign; nearly all actives have a fitted effect of over 65% in size; many hits overshoot -100%
# Target sequence (P80244 whole entry, looked up): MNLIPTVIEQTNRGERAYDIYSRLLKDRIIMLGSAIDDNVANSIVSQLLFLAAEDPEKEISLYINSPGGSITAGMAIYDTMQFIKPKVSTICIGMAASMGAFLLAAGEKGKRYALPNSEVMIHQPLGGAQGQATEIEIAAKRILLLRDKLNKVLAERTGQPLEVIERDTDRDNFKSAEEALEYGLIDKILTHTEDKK
#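 Buffer: 100 mM Tris/HCl pH8, 100 mM KCl, 0.05% low protease BSA, 2.5% glycerol, 0.01% Tween-20. ClpP 10 microg/mL final; 20 min RT; delta FRET normalized to ADEP and DMSO controls.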
# Numbers without * were called inactive; ? = inconclusive; / = not tested or not shown; & = joins results of further samples; [ ] = remark or other dose.
no.	Structure	Menin MLL FP FL	TRPML1 agonist	gsp ag	gsp antagonist	TRPML1 blocker	ClpP mod
1	O=C(Nc1ccc(S(=O)(=O)N2CCc3ccccc3C2)cc1)C1CCCO1 (configuration not stated)	-0.8	1.1	-45%[inhibitor]	-2%	0	-1.3%
2	O=C(NCc1ccc2c(c1)CCN2C(=O)c1ccccc1)c1ccc(Br)o1	/	1.5	/	/	-2	-7.6%
3	COc1cccc(OC)c1C(=O)Nc1ccccc1N1CCCCC1	-4.3	2.5	-25%[15.4 µM]	-18%	11	-2.1%
4	CC(=O)N1CCN(c2ccc(NC(=S)NC(=O)COc3ccc(C(C)(C)C)cc3)cc2)CC1	3.3	-0.8	0%[15.4 µM]	-13%	19	-5.2%
5	O=C(c1cccs1)N1CCCC(c2nc(-c3ccc(F)cc3)no2)C1 (configuration not stated)	0.2	1.3	-1%	-14%	-8	0.2%
6	COc1cccc(Cn2cccc(NC(=O)Nc3cccc(C#N)c3)c2=O)c1	0.7	/	21%	-12%	/	28µM*
7	O=C(O)C1=CC[C@@H](c2ccc(Cl)cc2)N(S(=O)(=O)c2ccc(Cl)cc2)[C@H]1c1ccc(F)cc1	/	-0.4	/	-20%	1	1.1%
8	O=C(OCC(=O)N1CCCC1)c1ccc(OC(F)(F)F)cc1	1.0	1.1	-5%	-1%	33	/
9	COc1ccccc1NC(=O)C1=C(C)Nc2nc(SCC(=O)c3ccc(C)cc3)nn2C1c1ccccc1C (configuration not stated)	/	1.0	/	/	-9	0.9%
10	O=C(C/C=N/OCc1c(Cl)cccc1Cl)c1cnc(-c2ccccc2)s1	6.3	0.4	11%	10%[15.4 µM]	2	-1.7%
11	CN(C(=O)CSc1nc2ccc(NC(=O)c3ccccc3)cc2s1)c1ccccc1	/	1.4	/	/	-25	?
12	CCN(CC(=O)Nc1ccccc1OC)C(=O)CSCC(=O)Nc1ccc(OC)cc1	/	0.6	19%[15.4 µM]	-1%	0	/
13	COc1ccc(CCN2C(=S)N(C)C(=O)C2CC(=O)Nc2ccc(OC)cc2)cc1 (configuration not stated)	-7.4	0.6	17%	-13%	30	/
14	COc1cccc(-c2sc3ccc(OC)cc3c2C#CC(C)(C)O)c1	/	-0.6	/	-2%	7	4.0%
15	Cc1c(C(=O)Nc2ccc(F)cc2)oc2ccc(S(=O)(=O)N3CCCCCC3)cc12	/	1.3	/	/	17	-13%
16	O=C(NC1CCCCCC1)c1ccc(CN2CCOCC2)cc1	0.8	0.7	-3%	2%	-5	-1.2%
17	CCCCOC(=O)C1CN(c2ccccc2)N=C1C(=O)OCC (configuration not stated)	4.7	1.8	?	-2%	-9	?
18	CS(=O)(=O)c1ccc2nc(NC(=O)c3cc4ccccc4o3)sc2c1	-1.3	1.8	21%	0%	-6	-19%
19	Cc1oncc1C(=O)N1CCCC(CO)(Cc2ccc(F)cc2F)C1 (configuration not stated)	1.0	0.0	22%	5%	-12	/
20	COc1ccc2cc(CCNC(=O)c3ccc(S(=O)(=O)N4CCCC4)cc3)c(=O)[nH]c2c1	/	1.6	?	-2%	-1	-2.9%

# Arranged by length of the SMILES (falling): part of the list above.
no.	Structure	Menin MLL FP FL	TRPML1 agonist	gsp ag	gsp antagonist	TRPML1 blocker	ClpP mod
7	O=C(O)C1=CC[C@@H](c2ccc(Cl)cc2)N(S(=O)(=O)c2ccc(Cl)cc2)[C@H]1c1ccc(F)cc1	/	-0.4	/	-20%	1	1.1%
12	CCN(CC(=O)Nc1ccccc1OC)C(=O)CSCC(=O)Nc1ccc(OC)cc1	/	0.6	19%[15.4 µM]	-1%	0	/
14	COc1cccc(-c2sc3ccc(OC)cc3c2C#CC(C)(C)O)c1	/	-0.6	/	-2%	7	4.0%

# (listing goes on)
no.	Structure	Menin MLL FP FL	TRPML1 agonist	gsp ag	gsp antagonist	TRPML1 blocker	ClpP mod
21	Cc1cc(NC(=O)COC(=O)c2oc3c(Cl)cccc3c2C)no1	9.8	-1.2	-14%	15%	2	-1.5%
22	CCOc1ccc(CCNC(=O)c2cc3c(C)nccc3[nH]c2=O)cc1OCC	-3.1	2.4	14%[15.4 µM]	-18%	43	/
23	CCN1CCN(c2cc(C)c3cc(NC(=O)Cc4ccccc4OC)ccc3n2)CC1	-4.9	-0.3	-7%	18%	2	28µM*
24	CCOc1ccc(OCC)c(NC(=O)CN(C)S(=O)(=O)c2ccc3c(c2)CCCC(=O)N3)c1	/	2.2	/	/	-20	1.6%
25	COCC(C)N1CCC(n2nccc2NC(=O)c2ccc3c(c2)OCO3)CC1 (configuration not stated)	/	-0.1	-4%	9%	-5	-4.4%
26	O=C(CSc1nnnn1Cc1ccccc1)NCCc1ccccc1	1.8	-0.5	-11%	-5%	-2	4.5%
27	COc1ccc(NS(=O)(=O)c2cccc(C(=O)N/N=C/c3cn(-c4ccccc4)nc3-c3ccccc3)c2)cc1	2.0	0.1	1%	4%	38	-11%
28	CCc1ccc(NC(=O)C2CCN(S(=O)(=O)c3c(C)noc3/C=C/c3ccco3)CC2)cc1	/	-0.2	/	/	-8	-3.7%
29	CCc1ccc(NC(=O)N2CCC(N3CCN(Cc4ccc(C)cc4)C(=O)C3=O)CC2)cc1	/	2.0	/	/	-24	2.9%
30	COc1ccc(C2CC=C(C(C)=O)CN2S(=O)(=O)c2ccc(Cl)cc2)cc1 (configuration not stated)	/	2.4&1.8	/	/	59&31	-0.2%&-8.5%
31	Cc1occc1C(=O)NCc1nc(-c2ccccc2)no1	2.9	0.2	-5%[15.4 µM]	13%	27	/
32	CS(=O)(=O)N(Cc1ccccc1)c1ccc(C(=O)NC2CCCCC2O)cc1 (configuration not stated)	1.2	-1.0	0%	12%	44	0.3%
33	COc1ccc(C)cc1NC(=O)C1CCN(C(=O)c2ccco2)CC1	0.0	1.1	21%	1%	15	/
34	CCOC(=O)Cc1nnc(Nc2cccc(O)c2)c2ccccc12	2.3	1.2	10%	-1%	7	0.7%
35	COc1ccc(OC)c(/C=C/C(=O)OCC(=O)N2CCN(S(=O)(=O)c3ccc(C)cc3C)CC2)c1	/	-0.2	-38%[inhibitor]	-4%	-10	?
36	Cc1cc(C)cc(N2C(=O)CCSC23C(=O)N(Cc2ccccc2)c2ccccc23)c1 (configuration not stated)	/	2.2	/	/	-7	-1.8%
37	CCc1nnc(NC(=O)CSc2nnc(-c3cccnc3)n2C)s1	-3.0	0.6	-5%[15.4 µM]	7%	0	/
38	CCN(CC)c1nc(C#N)nc(N(CC)CC)n1	-0.8	-0.6&-0.4	13%[15.4 µM]	-12%	0	0.8%&-6.3%
39	Cc1cccc(NC(=O)COc2ccc3c(c2)CCC3)n1	/	2.4	-12%[15.4 µM]	1%	-11	28µM*
40	O=C(NCc1ccc(Cl)cc1)C(=O)Nc1ccc(Br)cc1	/	0.0	/	/	-22	0.1%

# Compound profiles, as listed above. Order of screens: Menin MLL FP FL	TRPML1 agonist	gsp ag	gsp antagonist	TRPML1 blocker	ClpP mod
# `CCN1CCN(c2cc(C)c3cc(NC(=O)Cc4ccccc4OC)ccc3n2)CC1` in the list: -4.9	-0.3	-7%	18%	2	28µM*
# `CCN(CC)c1nc(C#N)nc(N(CC)CC)n1` in the list: -0.8	-0.6&-0.4	13%[15.4 µM]	-12%	0	0.8%&-6.3%
# `COc1ccc(OC)c(/C=C/C(=O)OCC(=O)N2CCN(S(=O)(=O)c3ccc(C)cc3C)CC2)c1` in the list: /	-0.2	-38%[inhibitor]	-4%	-10	?
# `COCC(C)N1CCC(n2nccc2NC(=O)c2ccc3c(c2)OCO3)CC1` (configuration not stated) in the list: /	-0.1	-4%	9%	-5	-4.4%

# (cont.)
no.	Structure	Menin MLL FP FL	TRPML1 agonist	gsp ag	gsp antagonist	TRPML1 blocker	ClpP mod
41	CC(C)(C)n1cnc2cc(NS(=O)(=O)c3ccccc3)ccc21	2.3	0.1	-23%	-1%	6	-1.2%
42	CCc1cccc(NC(=O)c2cn3c4c(ccc(Cl)c4c2=O)OC(C)C3)c1 (configuration not stated)	/	-0.5	/	/	11	-8.0%
43	O=C(c1cccc(S(=O)(=O)N2CCOCC2)c1)N1CCN(S(=O)(=O)c2cccs2)CC1	-1.7	-0.2	-5%[15.4 µM]	7%	-1	/
44	O=c1[nH]nc(SCc2nc3ccccc3s2)n1C1CC1	15	0.9	0%	-1%	12	-2.1%
45	Cc1nccn1CC(=O)N/N=C/c1cccc(O)c1	1.1	0.0	-8%	12%	11	-9.9%
46	O=c1[nH]c2ccc([N+](=O)[O-])cc2[nH]1	/	0.6	4%	1%	-5	/
47	COc1ccc(-c2onc(C)c2-c2cnn(-c3ccccc3)c2)c(O)c1C	-0.3	14	-2%	-9%	4	/
48	Cc1ccc(NC2=C/C(=N/S(=O)(=O)c3cccs3)c3ccccc3C2=O)cc1C	/	0.2	-51%[inhibitor]	-15%	14	-5.9%
49	CCOc1ccc(N=C/C=C/c2ccccc2)c(O)c1	?	2.4	-7%	-10%	-18	-1.9%
50	CCn1c(C)nc2cc(C(=O)NNS(=O)(=O)c3c(F)cc(F)c(Cl)c3F)ccc21	-3.8	0.7	-26%[15.4 µM]	4%	-1	-3.9%
51	COCCN(Cc1ccccc1)C(=O)c1cccc(S(=O)(=O)N2CCN(c3ccccc3)CC2)c1	/	3.1	5%[15.4 µM]	-23%	-1	/
52	CCOC(=O)C1CCC(CN(Cc2ccc(OC)cc2)S(=O)(=O)c2ccc(F)c(C(=O)Nc3cc(Cl)ccc3OC)c2)CC1 (configuration not stated)	/	0.8	/	/	2	-9.3%
53	Cc1ccc(CC(=O)N2CCN(S(=O)(=O)c3ccccc3)CC2)cc1C	/	0.3	?	5%	0	-2.2%
54	COc1ccc(NC(=O)NN2CCN(C)CC2)c(OC)c1	/	0.6	-48%[inhibitor]	4%	-5	-3.0%
55	CCOc1ccc(CCNC(=O)COC(=O)CCS(=O)(=O)c2ccc(C)cc2)cc1OCC	/	0.8	?	-21%	2	1.6%
56	COc1ccccc1CCNC(=O)C(=O)NCC1OCCN1S(=O)(=O)c1ccccc1 (configuration not stated)	-0.7	-0.3	-22%	5%	20	-4.0%
